Assay outcomes deposited in PubChem by several laboratories.
FGF22 binding: shifts melting point of recombinant human FGF22. Q9HCT0. recombinant FGF22 thermal shift, SYPRO orange fluorescence; percent of sucrose octasulfate shift, DMSO zero. calls only at 9.99 µM. 340,000 tested, 1.5% active;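 active = melting point raised past a set limit in the mean and every replicate; three in four hits are not shown here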
Target sequence (Q9HCT0 whole entry, looked up): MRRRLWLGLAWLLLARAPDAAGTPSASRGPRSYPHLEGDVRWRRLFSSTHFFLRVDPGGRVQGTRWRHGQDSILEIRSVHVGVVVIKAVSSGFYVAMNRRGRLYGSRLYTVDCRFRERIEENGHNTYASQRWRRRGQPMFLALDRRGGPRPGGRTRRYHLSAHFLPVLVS
Beta2AR agonist: human beta-2 adrenergic receptor agonism by FAP; P07550; Am2.2-beta2AR cells, FAP receptor internalization, flow cytometry; reference of the scale not given here; response, % (concentration not given with the values); 340,000 tested, 0.43% active; AID 504454;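 active = response above a set limit, near 3 SD of response in nonfluorescent compounds, cut at about 42% in these data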;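 note: stock transfer was 100 nL into about 11 µL; a reference agonist was the positive control; negative values mostly stem from fluorescent compounds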
HNF4A DNA FP: change in binding of human HNF4 alpha to DNA | P41235 | 360,000 tested, 0.3% active | HNF4a-FITC DNA binding, fluorescence polarization, 1 h | activity change, % at 10 µM; in the data active = activity change above about 30%, passing the limit was not always enough;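 note: controls were the assay level and a saturating level of protein; the project sought stronger binding though the title names inhibitors; some compounds called inactive have numbers as strong as hits; positive values seem to mean higher polarization but the record does not say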
Target sequence (P41235 whole entry, looked up): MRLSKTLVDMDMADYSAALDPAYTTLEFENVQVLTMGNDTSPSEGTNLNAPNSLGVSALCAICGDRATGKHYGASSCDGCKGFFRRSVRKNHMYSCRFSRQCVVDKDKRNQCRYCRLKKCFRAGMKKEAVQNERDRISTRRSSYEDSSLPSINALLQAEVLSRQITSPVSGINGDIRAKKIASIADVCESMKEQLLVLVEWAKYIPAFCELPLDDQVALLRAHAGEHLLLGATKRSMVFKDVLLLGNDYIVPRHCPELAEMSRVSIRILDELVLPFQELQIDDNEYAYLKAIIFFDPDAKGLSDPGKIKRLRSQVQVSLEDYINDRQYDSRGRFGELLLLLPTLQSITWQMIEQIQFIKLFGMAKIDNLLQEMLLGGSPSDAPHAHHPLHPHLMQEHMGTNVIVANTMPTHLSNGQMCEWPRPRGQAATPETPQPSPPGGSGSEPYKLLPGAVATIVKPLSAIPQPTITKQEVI
UCH37 inh: blocks the human deubiquitinase UCH37; 330,000 tested, 0.33% active; inhibition, % (no concentration beside the values); AID 588478; purified proteasome/UCH37, Ub-AMC cleavage fluorescence; Q9Y5K5;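 active = mean of two replicates above 20%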;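 note: 0% = compound-free wells with enzyme and 100% = wells lacking proteasome; stock transfer was 100 nL into about 20 µL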
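Reagent: Ub-AMC substrate; assay system: Proteasome-associated human UCH37 deubiquitinase; controls: no-proteasome and no-compound wells; read-out: % inhibition of Ub-AMC cleavage fluorescence; timing: 30 min preincubation with enzyme, 25 min cleavage at room temperature; signal: AMC fluorescence from Ub-AMC cleavage, excitation 355 nm, emission 460 nm; buffer or medium: Tris-HCl pH 7.4 plus ovalbumin, ATP-MgCl2, DTT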
Ecoli rRNA inh: selective bacterial rRNA inhibition in E. coli; GFP signal change (wild-type ribosome), % (no concentration beside the values); E. coli WT GFP vs humanized-ribosome RFP mutants, fluorescence, 24 h; stronger effect = lower value; DMSO median 0, no signal -100; 350,000 tested, 1.6% active;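 active = significant combined selectivity score with lowered wild-type GFP, culture density cut under 30%, mutant RFP and density less affected; inactive = any of these conditions unmet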; note: one replicate is shown; some compounds called inactive have numbers as strong as hits
E coli growth: blocks Escherichia coli growth; OD600, 23 h; stronger effect = lower value; OD600 absorbance (concentration not given with the values); 330,000 tested, 0.21% active; AID 1053175;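 active = OD600 absorbance below the run mean of sample wells minus 3.6 SD, in any replicate, cut at about 0.56 in these data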;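 note: stock transfer was 300 nL into about 60 µL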
ALR H2O2 inh: human ALR oxidase inhibition via reduced H2O2; purified ALR, DTT oxidation, H2O2 HRP-luminol luminescence; inhibition, % (no concentration beside the values); 290,000 tested, 3.8% active;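 active = mean and each replicate at 75% or more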;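 note: stock transfer was 7.5 nL into about 7.5 µL; 0% = neutral wells and 100% = wells with inactivated enzyme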
Target sequence (P55789 whole entry, looked up): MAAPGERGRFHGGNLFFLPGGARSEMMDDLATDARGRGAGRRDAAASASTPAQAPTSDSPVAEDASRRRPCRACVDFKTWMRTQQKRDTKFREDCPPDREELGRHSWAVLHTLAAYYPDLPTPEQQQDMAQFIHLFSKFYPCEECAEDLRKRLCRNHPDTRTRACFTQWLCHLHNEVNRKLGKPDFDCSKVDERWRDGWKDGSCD
Ecoli rRNA inh OD600: recorded beside Ecoli rRNA inh, whose call it bears; OD600 change, %; measured here: OD600 growth;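 optical density of the mix in the first replicate; 0 = DMSO median and -100 = no signal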
Ecoli rRNA inh RFP: recorded beside Ecoli rRNA inh, whose call it bears; RFP signal change, %; measured here: RFP humanized mutant strains;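 first replicate; 0 = DMSO median and -100 = no signal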
Starred values were filed as active, the others as inactive; i = inactive; . = no result given. The list is partial (hit frequency here may not be typical).

cpd	structure	FGF22 binding	Beta2AR agonist	HNF4A DNA FP	UCH37 inh	Ecoli rRNA inh	Ecoli rRNA inh OD600	Ecoli rRNA inh RFP	E coli growth	ALR H2O2 inh
1	OCCC1CN(Cc2ccccc2-c2ccco2)CCN1C1CCCC1 (stereo unspecified)	i	1	1.6	1.5	1	4	11	0.66	-1
2	COc1ccc(OC)c(C(C)NC(=O)C23CC4CC(CC(C4)C2)C3)c1 (stereo unspecified)	i	2	1.8	3.0	19	16	2.9	0.71	-4
3	CC/C(=C\C(=O)c1cccnc1)Nc1ccc(C)c(C)c1	.	-10	2.6	6.6	.	.	.	0.7	-8
4	CCCN(Cc1cc2cc(C)ccc2[nH]c1=O)C(=O)c1ccccn1	i	0	0.1	-12	14	11	0.8	0.7	-29
5	COC(=O)c1ccccc1OS(=O)(=O)N(C)C	i	5	-0.9	3.8	0	2	-1.8	0.69	2
6	O=C(Cc1cccs1)N1CCN(c2nc(-c3ccc(Cl)cc3)cs2)CC1	i	1	0.2	-1.6	-16	-10	2.8	0.78	-5
7	CC(C)C[C@H]1CN([C@@H](CC(C)C)CN2CCCC2CN2C(=S)NC[C@@H]2Cc2ccc(O)cc2)C(=S)N1CCc1ccccc1 (stereo partly specified)	i	9	1.3	.	0	2	-5.5	.	.
8	NC(=O)c1c(N)sc2c1CCC2	.	-1	-6.3	3.5	27	23	15	.	.
9	Cc1ccc(S(=O)(=O)N2CCCC2C(=O)Nc2ccc(O)cc2)cc1 (stereo unspecified)	i	4	-0.7	2.1	-3	-4	-1.2	0.71	.
10	Cc1csc(NC(=O)c2ccc(OCC3CCCO3)cc2)n1 (stereo unspecified)	i	-3	2.4	0.9	12	10	-1.6	0.68	-5
11	Cc1cc(C)c2c(n1)sc1c(=O)n(Cc3ccccc3Cl)nnc12	.	5	3.2	2.4	.	.	.	0.74	.
12	Cc1ccc2cc(CN(C(=O)c3ccco3)c3ccccc3C)c(=O)[nH]c2c1	.	-1	-1.0	0.1	.	.	.	0.69	3
13	Cc1ccc(/C=C/C2=NN(Cc3ccc(Cl)c(Cl)c3)C(=O)CC2)cc1	.	5	-2.1	3.2	.	.	.	0.74	-3
14	CCN(CCNC(=O)Cn1c(=O)sc2ccccc21)c1ccccc1	i	5	-0.5	4.8	-9	-6	-1.7	0.73	98*
15	COc1ccc(CN(C)C(=O)Cn2cnc3c(OCc4ccccc4)ncnc32)cc1OC	i	3	2.0	4.7	-15	-9	-0.6	0.7	.
16	O=C(COc1ccc(Cl)cc1)Nc1nc(-c2ccncc2)cs1	i	7	5.0	1.0	0	3	0.0	0.71	-6
17	CCCCNC(=O)/C=C1\Sc2ccccc2NC1=O	.	-16	-1.1	-69	.	.	.	0.74	1
18	CCOC(=O)C1CCCN(C(=O)Cc2ccc(C)cc2)C1 (stereo unspecified)	.	3	-1.2	2.6	.	.	.	0.66	-7
19	O=C(Nc1cccc(NC(=O)c2ccc(Br)o2)n1)c1ccc(Br)o1	.	13	-2.5	-4.9	.	.	.	0.69	23
20	COc1ccc(N2CCN(C(=O)CSc3nnc4n3C(C)(C)Cc3ccccc3-4)CC2)cc1	.	-1	-4.7	4.9	.	.	.	0.72	34
21	COC(=O)c1cc(N=Cc2c(O)c3ccccc3oc2=O)cc(C(=O)OC)c1	.	10	-1.2	-60	.	.	.	0.67	1
22	Cc1noc(/C=C/N(C)C)c1S(=O)(=O)N1CCCC(C(=O)NC(C)c2ccccc2)C1 (stereo unspecified)	.	3	7.4	11	.	.	.	0.69	8
23	CC(C)(C)NC(=O)CSCc1c(Cl)cccc1Cl	i	8	-1.5	-0.3	-31*	-17*	-4.5*	0.69	-1
24	CS(=O)(=O)N1CCC(C(=O)N2CCN(c3ccc(F)cc3)CC2)CC1	.	-2	0.3	4.1	-4	-3	-2.2	0.7	17
25	COc1ccc(-n2ncc3c2CC(C)(C)CC3NC(=O)c2cnc(C)cn2)cc1 (stereo unspecified)	i	-9	0.0	6.6	5	14	-1.5	0.69	-3
26	O=C(Nc1cccc(Cl)c1N1CCCCC1)c1ccc(N2CCOCC2)c([N+](=O)[O-])c1	i	-9	1.0	5.9	5	14	-10	0.73	-3
27	CCOC(=O)C1CCN(C(=O)c2ccc(Cl)c(S(=O)(=O)N3CCOCC3)c2)CC1	i	8	0.0	5.4	2	-2	-8.4	0.73	.
28	CC(C)Oc1ccc2ccccc2c1C=O	.	-3	-0.2	5.8	.	.	.	0.7	-3
29	COc1cccc(NC(=O)/C=C/c2ccc([N+](=O)[O-])cc2)c1	i	5	-2.9	4.3	5	-1	17	0.66	2
30	CC(CCc1ccccn1)(CCc1ccccn1)C(=O)c1ccccc1	i	-6	-0.8	1.0	-23	-47	-7.3	0.67	.

Excerpt: nos. 4 to 5
cpd	structure	FGF22 binding	Beta2AR agonist	HNF4A DNA FP	UCH37 inh	Ecoli rRNA inh	Ecoli rRNA inh OD600	Ecoli rRNA inh RFP	E coli growth	ALR H2O2 inh
4	CCCN(Cc1cc2cc(C)ccc2[nH]c1=O)C(=O)c1ccccn1	i	0	0.1	-12	14	11	0.8	0.7	-29
5	COC(=O)c1ccccc1OS(=O)(=O)N(C)C	i	5	-0.9	3.8	0	2	-1.8	0.69	2

The list continues:
cpd	structure	FGF22 binding	Beta2AR agonist	HNF4A DNA FP	UCH37 inh	Ecoli rRNA inh	Ecoli rRNA inh OD600	Ecoli rRNA inh RFP	E coli growth	ALR H2O2 inh
31	O=C1[C@H]2[C@@H](c3ccc(F)cc3)N3C(=O)N(c4ccc(Br)cc4)C(=O)[C@@]3(Cc3ccc(Cl)cc3)[C@H]2C(=O)N1C1CCCCC1	i	-3	0.8	1.9	10	13	3.6	.	.
32	COCCn1c(CN2CCN(c3ccccc3)CC2)nc2c1c(=O)n(C)c(=O)n2C	.	15	1.2	1.1	.	.	.	0.69	41
33	O=C(COC(=O)c1ccccc1O)NCCc1c[nH]c2ccccc12	i	4	1.1	1.7	0	-22	2.1	0.65	-1
34	CC(=O)C[C@H](O)CC(=O)[C@H]1OC(=O)[C@@H](C)C/C=C\Cc2ccccc21	i	-3	-2.3	1.8	10	6	-0.1	0.69	.
35	Cc1ccc(OCC(=O)N/N=C\c2c(C)n(C)c3ccccc23)c([N+](=O)[O-])c1	.	10	-3.5	.	.	.	.	.	-35
36	Cc1ccccc1NC(=O)c1cc(S(=O)(=O)Nc2cccc(C(=O)O)c2)ccc1Cl	i	-2	1.2	5.0	10	8	-0.7	0.68	43
37	CCOC(=O)C1CCCN(C(=O)c2cc(C(C)(C)C)nn2C)CC1 (stereo unspecified)	i	.	7.3	.	4	11	1.1	.	.
38	COc1ccc2c(CC(=O)OCc3nc4ccsc4c(=O)[nH]3)coc2c1	i	3	-2.4	-0.3	-3	-1	2.4	0.71	.
39	CCc1nc2ccccc2n1Cc1ccc(OC)c(OC)c1	.	-6	1.3	2.0	.	.	.	0.68	8
40	O=C(CCC1CCCC1)Nc1ccc(C(=O)NCc2cccnc2)cc1	i	1	3.6	2.7	-18	-14	-3.5	0.67	-5
41	COc1ccc(NS(=O)(=O)c2ccc(S(=O)(=O)N3CCOCC3)cc2)cc1	i	-3	-0.5	3.1	13	-1	-0.7	0.72	-2
42	Cc1ccccc1C(=O)c1c[nH]c(C(N)=O)c1	.	14	-4.7	1.3	.	.	.	0.72	-2
43	Cc1ccccc1OCCn1cc(C(=O)C(=O)N2CCOCC2)c2ccccc21	i	1	1.9	1.7	8	2	5.0	0.72	-9
44	CCC(C)c1ccc(NC(=O)COC(=O)C2=COCCO2)cc1 (stereo unspecified)	.	-1	0.7	3.4	.	.	.	0.71	-4
45	c1ccc(-c2ccc(-n3ccnc3)cc2)cc1	.	4	-1.8	0.5	.	.	.	0.56	-1
46	Cc1ccc(CN2[C@@H](Cc3ccccc3)C(=O)CS2(=O)=O)cc1	i	7	0.5	1.9	3	1	-2.3	.	6
47	O=C1CCC(C(=O)N2CCN(c3cnccn3)CC2)CN1CCc1ccc(Cl)cc1 (stereo unspecified)	i	-10	4.1	-8.9	3	-1	-1.2	0.69	.
48	Nc1cccc(N2C(=O)c3cccc4c(N)ccc(c34)C2=O)c1	i	-156	-81	.	74	-7	-7.6	.	-12
49	CNC(=O)c1sc(-c2ccccc2)nc1C	.	-2	0.3	-3.0	.	.	.	0.71	-7
50	COc1ccc(-c2nc3ccccc3c(=O)n2N)cc1	.	-10	-1.1	1.9	.	.	.	0.7	-7
51	CC(C)NC(=O)Cn1c(=O)cnc2ccccc21	.	0	-0.6	-3.3	.	.	.	0.74	-8
52	Cc1ccc(C(=O)N/C(=C/c2ccc(-c3cccc([N+](=O)[O-])c3)o2)C(=O)NC(C)(C)C)cc1	i	5	1.0	4.2	0	-3	-4.7	.	-4
53	Cc1ccc(-c2n[nH]c(=S)nc2-c2ccc(C)cc2)cc1	i	1	-2.2	4.5	-36	-37	-7.3	0.67	8
54	COc1cc(O)c(C=NN2C(=O)CSC2=S)c(OC)c1	i	.	6.9	.	-15	-2	-8.0	.	.
55	CC(=O)OC1=Cc2c(ccc3ccc(=O)oc23)OC1(C)C	.	-18	2.8	-52	.	.	.	0.71	15
56	O=C(O)COc1ccccc1/C=C1\SC(=S)N(c2cccnc2)C1=O	i	.	.	8.7	7	3	-3.8	0.65	.
57	COc1ccc(NC(=O)c2cccs2)cc1OC	.	-16	3.0	1.7	.	.	.	0.7	-1
58	Cc1cccc(C)c1NC(=O)CN(C)C(=O)C1=COCCO1	i	-5	0.4	2.0	7	8	0.8	0.72	-1
59	CCCn1c(N)c(C(=O)CN(C)CC(=O)Nc2cc(C)ccc2C)c(=O)[nH]c1=O	i	6	-2.0	0.2	0	4	3.4	0.61	.
60	S=C1SCN(Cc2cccnc2)CN1Cc1ccccc1	i	-4	2.4	4.3	-29*	-11*	-2.4*	0.65	.
61	S=c1[nH]c2cc(-c3ccccc3)ccc2o1	i	6	-0.3	.	-9	6	-0.2	.	71
62	Cc1ccc(C)c(NC(=S)N2CCC(N(C)CC3CCCO3)CC2)c1 (stereo unspecified)	i	4	2.1	7.0	8	0	-7.6	0.72	-7
63	O=C(Nc1ccc(C(=O)NCc2ccccc2Cl)cc1)C1=CSCCO1	i	0	-1.8	1.0	-14	-10	-0.2	0.66	-5
